Bioassay records deposited in PubChem by National Center for Advancing Translational Sciences (NCATS).
Anthrax LT inh = anthrax lethal toxin internalization inhibition; Cells, anthrax lethal toxin internalization, FRET ratio (460/530); Potency, µM (titrated, usually from 40 µM), for inactives: at the highest dose activity change, negative = inhibition, most hits filed as inhibitors; 70,000 compounds, 0.67% hits; active = well fitted falling ratio curve with the 530 nm signal flat; inconclusive = other ratio curves, or a change in one channel alone; inactive = flat curves in the ratio and both channels; the % refers to the ratio; note: % is set by controls: 0 for no effect and ±100 for the full control effect; nearly all actives have a fitted effect of over 50% in size; tested in ME-180 cells; beta-lactamase reporter
Prx2 Sm inh = Schistosoma mansoni Prx2 inhibition; AID 448; Potency, µM; 65,000 compounds, 0.07% hits; S. mansoni Prx2 activity coupled to TGR/GSH (TGR is thioredoxin glutathione reductase), NADPH fluorescence loss, qHTS; some inactives read as strong as hits; active means full or partial inhibition curve with a strong effect at the top dose; inconclusive means weaker partial or single-point curve; inactive means no accepted curve; note: series up to 57 µM; many of its hits are not listed in these tables
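Coupled assay in which S. mansoni TGR passes NADPH reducing equivalents via glutathione to Prx2, which reduces H2O2. Compounds were preincubated 15 min at room temperature with 25 nM TGR/50 nM Prx2 mix. Kinetic NADPH fluorescence loss (ex 365/em 450 nm) was monitored.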
An asterisk follows results filed as active; ? = inconclusive; / = no result given; & = joins results of further samples; [ ] = remark or other dose. Potency is the fitted concentration of half-maximal effect. A portion of the library; rates above refer to the full screens.

Every second line gives: Anthrax LT inh | Prx2 Sm inh
Cc1cc(C)cc(N(C(=O)C2CCCC2)C2C=CS(=O)(=O)C2)c1 (centres undefined)
 : 9.0% | >57
CO/N=C\c1ccc(C(=O)N2[C@H](c3ccc(C)cc3)[C@@H](C)CC[C@H]2C(=O)OC)cc1
 : -8.2%[0.064 µM] | /
CCc1cccc(NC(=O)Cn2cccc2)c1
 : 1.1% | >57
COc1ccccc1CNc1cc(-c2ccccc2OC)ncn1
 : ? | >57
CCOC(=O)Cn1c(=O)oc2cc(S(=O)(=O)N3CCN(c4ccccn4)CC3)ccc21
 : 14.4% | >57
Cn1c(SCc2cccc3ccccc23)nnc1-c1ccco1
 : ? | >57
CSc1nnc(-c2ccc(O)cc2)n1C
 : -14.8% | >57
CC(C)(C)OC(=O)N[C@@H](Cc1c[nH]c2ccccc12)c1nnc(SCC(N)=O)o1
 : -6.7% | >57
Cc1ccc(S(=O)(=O)N(C)c2ccc(OCC(=O)OCc3c(C)noc3C)cc2)cc1
 : ? | >57
N#Cc1c(N)n(CCNC(=O)c2cccs2)c2nc3ccccc3nc12
 : ? | >57
CCOc1cc2[nH]c(=O)n(CCC(=O)NCCc3ccccc3)c(=O)c2cc1OCC
 : -2.5% | >57
Cc1cccc(Nc2nc(N)nc(CN3CCN(C)CC3)n2)c1
 : ? | >57
CCOc1nc(-c2ccccc2O)nc2ccccc12
 : 1.7% | >57
CCCn1c(SCC(=O)NC)nnc1C(C)C
 : -0.2% | >57
O=C(CN(C1CCCCC1)S(=O)(=O)c1ccccc1)N1CCCC1
 : 8.6% | /
Fc1ccc(-c2nnc3sc(C4COc5ccccc5O4)nn23)cc1 (centres undefined)
 : -6.3% | >57
Cc1cccc(-n2ncc3c(Nc4ccc(F)cc4)ncnc32)c1
 : ? | >57
COc1ccc(F)cc1S(=O)(=O)N1CCN(Cc2ccc3c(c2)OCO3)CC1
 : -3.1% | >57
Cc1onc(-c2ccccc2Cl)c1C(=O)N1CCN(c2cccc(Cl)c2)CC1
 : ? | >57
CC(SCCc1ccccn1)C(=O)O (centres undefined)
 : 6.2% | >57
ON1C(c2ccc(Cl)cc2Cl)N(O)[C@H]2CCCC[C@H]21 (some centres undefined)
 : -9.4% | >57
COc1ccc(S(=O)(=O)N2CCC(C(=O)N3CCN(c4ccccc4OC)CC3)CC2)cc1
 : -8.9% | >57
CC(=O)N(C)c1nc(-c2ccc(Cl)cc2)cs1
 : -10.4% | >57
CCn1cc(C(=O)NCc2ccccc2OC)c(=O)c2ccc(C)nc21
 : -0.1% | >57
c1ccc(Oc2cccc(NC3=NCCC3)c2)cc1
 : 4.3% | >57
COc1ccc2[nH]c(=O)c(CN(C(=O)C3CCCO3)c3ccc(C)cc3)cc2c1 (centres undefined)
 : ? | >57
CCn1cnc2sc(C(=O)O)c(C)c2c1=O
 : ? | >57
COc1ccccc1-c1nccc(NCc2cnc(C)cn2)n1
 : ? | >57
O=C(Nc1ccccc1)N(CCc1nc2ccccc2[nH]1)C1CCCC1
 : -11.4% | >57
COc1cc(C)nc(N2CCCC(C(=O)Nc3cccc(Cl)c3Cl)C2)n1 (centres undefined)
 : -6.3% | >57
O=[N+]([O-])c1ccc(CSCc2ccc(Cl)cc2)cc1
 : -20.5%[8 µM] | >57
Cc1cc(-c2nc3ncccc3o2)ccc1N
 : -5.0% | >57
Cn1cccc1-c1cc(C(=O)O)[nH]n1
 : -24.1% | >57
O=C(CN1CCN(c2ccc(F)cc2)CC1)OCc1ccccc1
 : -16.3% | >57
COc1ccc2c(c1)cc(C(=O)O)n2C
 : -1.3% | >57
Cc1cccc(NC(=O)C2CCCN2C(=O)OCC(C)C)c1C (centres undefined)
 : -0.7% | >57
CCN(CC)S(=O)(=O)c1ccc(Cl)c(C(=O)Nc2nnc(C)s2)c1
 : ? | /
COC(=O)C(C)Oc1cc(C)cc2oc(=O)c3c(c12)CCCC3 (centres undefined)
 : 8.6% | >57
CC(=O)Nc1cn(C(C)=O)c(C)n1
 : -0.1% | >57
Cc1ccc(/C(O)=C2\C(=O)C(=O)N(CC(C)O)C2c2ccc(N(C)C)cc2)cc1 (centres undefined)
 : -9.2% | >57
Brc1cccc(-c2nnc3n2CCCCC3)c1
 : -9.8% | >57
CC1CCCCN1S(=O)(=O)c1ccc2c(c1)CCN2C(=O)CCC(=O)O (centres undefined)
 : 1.9% | >57
CCC(=O)Nc1ccc(-c2nn3c(C)nnc3s2)cc1C
 : ? | >57
CCCc1nc(N)nc2c1C(=O)CC(C)(C)C2
 : -2.7% | >57
CCOC(=O)c1c(C)[nH]c(C(=O)CSc2nnc(CC(C)c3ccccc3)o2)c1C (centres undefined)
 : ? | >57
O=S(=O)(NCC1CCCO1)c1ccc2c(c1)OCCO2 (centres undefined)
 : ? | >57
O=C(Nc1ncnc2sc3c(c12)CCC3)c1ccco1
 : -8.3% | >57
CCN(CC)C(=O)c1ccc(COc2ccccc2Br)o1
 : -1.8% | >57
CCOC(=O)Nc1ccc2c(c1)Nc1ccccc1S2
 : 16.3% | >57
CCOc1ccc(-n2c(Cc3cc(=O)[nH]c(=O)[nH]3)nnc2SCC(N)=O)cc1
 : 1.0% | >57
COc1cc(C(=O)NCCC(=O)NC2CCCCCCC2)cc(OC)c1OC
 : ? | >57
CN(C(=O)CSc1ncccc1C(=O)O)c1ccccc1
 : -13.3% | >57
COC(=O)c1cc(C(=O)OC)cc(S(=O)(=O)Nc2ccc(Cl)c(N)c2)c1
 : -13.9% | >57
O=C(Cn1ncc2c(=O)oc3ccccc3c21)NCC1COc2ccccc2O1 (centres undefined)
 : -2.6% | >57
COc1ccc(CSc2nc(C)cc(=O)[nH]2)cc1
 : -6.3% | /
CCCCCc1nnc(NC(=O)C2CCCO2)s1 (centres undefined)
 : 0.8% | >57
Cc1cc(Br)c(S(=O)(=O)n2nnc3ccccc32)cc1C
 : 8.6% | >57
Cc1nc2ccc3nc(NC(=O)c4ccc(S(=O)(=O)N5CCOCC5)cc4)sc3c2s1
 : 3.7% | >57
O=C(c1cccc(F)c1)N1CCN(C(=O)c2cc(-c3ccc(Cl)cc3Cl)on2)CC1
 : -10.9% | >57
COc1cc(C)c(Br)cc1S(=O)(=O)N1CCCC1
 : 3.2% | >57

Later entries.
Every second line gives: Anthrax LT inh | Prx2 Sm inh
COc1ccc(S(=O)(=O)N2CCC(NC(=O)Nc3ccc(C)cc3)CC2)cc1
 : -9.0% | >57
COCCn1c(C)cc(C(=O)CSc2nnc3scc(-c4ccc(Cl)cc4)n23)c1C
 : 10.0% | >57
CN(C)c1cc(-c2ccccc2)nc(N)n1
 : -9.6% | >57
COc1cccc(N2CCN(C(=O)CCn3c(=S)[nH]c4cc5c(cc4c3=O)OCO5)CC2)c1
 : / | >57
O=C(Cn1nnc(-c2cccc(C(F)(F)F)c2)n1)NC(=O)NCc1ccco1
 : 0.0% | >57
Cn1c(Cn2c(=O)sc3ccccc32)nnc1SCC(=O)NCc1ccccc1Cl
 : 1.0% | >57
Cc1ccc(-c2nnn(CC(=O)NC3CC4CCC3C4)n2)cc1 (centres undefined)
 : -20.2% | >57
COc1cccc(C(=O)N2CCN=C2SCc2cccnc2)c1OC
 : -3.0% | >57
Cn1c(=O)c2c(nc(N3CCCCCC3)n2CC(=O)c2ccccc2)n(C)c1=O
 : -17.1% | >57
OC(CCl)CCl
 : 4.9% | /
CC(C)Cn1cc(C(=O)NCCCN2CCCC2=O)c2c3ccccc3n(C)c2c1=O
 : -6.1% | >57
CCCCn1c(=N)n(CC(O)COc2ccc(C)cc2)c2ccccc21 (centres undefined)
 : / | >57
Cc1ccc(SC(C)c2nc(-c3cccnc3)no2)cc1 (centres undefined)
 : -16.3% | >57
CCn1cc(NC(=O)Nc2ccccc2C(=O)OC)c(C(N)=O)n1
 : 5.3% | >57
O=C(COc1ccccc1)NC(Cc1c[nH]c2ccccc12)C(=O)O (centres undefined)
 : -12.8% | /
Cc1[nH]nc2c1C(c1ccccc1F)CC(=O)N2 (centres undefined)
 : ? | >57
COc1ccc(-n2c(SCC(=O)NCC3CCCO3)nc3n[nH]c(C)c3c2=N)cc1 (centres undefined)
 : -11.3% | >57
COc1ccc(OC(C)C(=O)NC2CC(C)(C)NC(C)(C)C2)cc1 (centres undefined)
 : -0.7% | >57
Cc1cnc(C(=O)Nc2ccc3c(c2)CCC3)cn1
 : -25.3% | >57
CCOC(=O)C1=C(C)NC(SCC(=O)Nc2cc(C)on2)=C(C#N)C1c1cccs1 (centres undefined)
 : -23.1% | >57
CC(C)(C)NC[C@H](O)c1cc(O)cc(O)c1
 : 4.0%[3.58 µM] | >57&>57
CCn1c(COc2cccc(C)c2)nnc1SCC(=O)N1CCCC1
 : 14.7% | >57
CC(=O)c1c(C)nc2ccc(Br)cc2c1C(=O)O
 : -12.0% | >57
CCCN1CCN(C(=O)c2cn(CC(C)C)c(=O)c3cc(OC)c(OC)cc23)CC1
 : 9.9% | >57
Cc1ccccc1NS(=O)(=O)c1cc(C(N)=O)ccc1C
 : 2.6% | >57
COc1ccccc1CN1CC(C(=O)N2CCN(c3ccc(F)cc3)CC2)CC1=O (centres undefined)
 : 9.2% | >57
CCOC(=O)c1sc(=N)n(-c2ccc(OC)cc2)c1C
 : -19.4% | >57
CCOC(=O)c1cc(-c2ccco2)nc2c1c(C)nn2-c1ccccc1
 : ? | >57
Cc1nn(-c2nc3ccccc3n2Cc2ccccc2)c2c1C(=O)CC(C)(C)C2
 : ? | >57
COc1cccc(C(=O)CN2CCC(NC(=O)NC3CCCCC3)CC2)c1
 : -8.6% | >57
Cc1cccc2ccccc12
 : -7.3% | /
COc1cccc(N2CCN(Cc3nc4ccccc4c(=O)[nH]3)CC2)c1
 : -6.1% | >57
COCCn1c(=S)[nH]c2cc(C(=O)NCCCN3CCOCC3)ccc2c1=O
 : -12.4% | >57
C=CCN=C(CC)C1=C(O)CCCC1=O
 : -13.3% | /
Oc1cccc(O)c1
 : -0.7% | /
Fc1ccc(CNc2nc(-c3ccco3)cc(C(F)(F)F)n2)cc1
 : ? | >57
COCCn1cnc2cc(C)c(C)cc21
 : ? | >57
COC(=O)c1ccccc1NC(=O)C1CCCN(S(=O)(=O)c2ccc(OC)cc2)C1 (centres undefined)
 : ? | >57
CCOC(=O)c1cc(-c2ccc(F)cc2)n(CC(=O)Nc2nccs2)c1C
 : 10µM* | >57
Cn1c(=O)c(CCc2ccccc2)nc2cncnc21
 : -17.2% | >57
Nc1ncnc2c1ncn2C[C@@H](O)C(=O)O
 : 0.2%[8 µM] | >57
CCOC(=O)N1CCC(Nc2c(Nc3ccc(C)c(C)c3)c(=O)c2=O)CC1
 : ? | >57
Cc1ccc(F)c(NC=C2C(=O)OC(C)(C)OC2=O)c1
 : -6.7% | /
O=c1c(-c2ccccc2)nc2cnc(N3CCNCC3)nc2n1Cc1ccc(F)cc1
 : ? | >57
CC1(C)Cc2ccccc2C(Nn2cnnc2)=N1
 : -3.9% | /
CS(=O)(=O)N(Cc1ccc(F)cc1)Cc1nc2ccccc2c(=O)[nH]1
 : -1.8% | >57
CCNc1ncc2nc(CCc3ccccc3)c(=O)n(CCOC)c2n1
 : ? | >57
COc1ccc(CNc2ncncc2-c2ccccc2Cl)c(OC)c1
 : ? | >57
O=C(Nc1nc2n(n1)C(c1ccc(Cl)cc1)CC(c1ccc(Cl)cc1)N2)c1ccco1 (centres undefined)
 : ? | >57
COc1ccccc1-c1ccc(=O)n(CC(=O)Nc2ccc(C(=O)N3CCCC3)cc2)n1
 : -2.8% | >57
O=C(O)c1cccc(CSc2nnc(COc3ccccc3)o2)c1
 : 16.1% | >57
COc1ccc(-c2noc(CN(C)S(=O)(=O)c3ccccc3)n2)cc1OC
 : -52.5% | >57
CO[C@@H]1COC(=O)[C@H]2CCCN2C(=O)[C@@H](C)COC(=O)[C@H](COCc2ccccc2)NC(=O)C/C=C\[C@H]1C
 : -3.3%[8 µM] | /
CCn1cc(C(=O)O)c(=O)c2ccc(Cc3ccccc3)nc21
 : ? | >57
O=C1CCCC2=C1C1(O)C(=O)c3ccccc3C1(O)O2 (centres undefined)
 : -4.1% | ?
NCCSC[C@H](N)C(=O)O
 : -3.9%[8 µM] | >57
O=C(O)CCSc1nc2ccccc2n1CCOc1ccccc1
 : -2.6% | /
CCOCCCN1C(=O)CN(C2CCCCC2)C(=O)C1c1ccc(OCC)c(OC)c1 (centres undefined)
 : -5.4% | >57
C[C@@]12CCC(=O)C=C1C=C[C@H]1[C@H]3CC[C@](O)(CCC(=O)O)[C@]3(C)CC[C@@H]12
 : -16.2%[3.58 µM] | >57
O=C(CC12CC3CC(CC(C3)C1)C2)NCCN1CCOCC1
 : ? | >57
Cc1ccc(-n2c(SCC(=O)Nc3ccc4c(c3)OCCO4)nnc2-c2ccco2)cc1
 : ? | >57
CCc1nnc(NC(=O)CSc2nnc(C3CCCCC3)n2-c2ccccc2)s1
 : -16.4% | >57

For convenience, some entries already given.
Every second line gives: Anthrax LT inh | Prx2 Sm inh
O=C(CC12CC3CC(CC(C3)C1)C2)NCCN1CCOCC1
 : ? | >57
Cc1ccc(-n2c(SCC(=O)Nc3ccc4c(c3)OCCO4)nnc2-c2ccco2)cc1
 : ? | >57
CCc1nnc(NC(=O)CSc2nnc(C3CCCCC3)n2-c2ccccc2)s1
 : -16.4% | >57
